Source: PubChem (several laboratories)
Vif A3G: inhibitors of Vif binding to APOBEC3G peptide, primary screen, biochemical, TR-FRET, GST-Vif 1-94, biotin-A3G peptide, dose response retest (AID 1117319). 0.57% of 260,000 active. TR-FRET GST-Vif / biotin-A3G peptide binding; higher % means a stronger effect; test concentration not given here; strong numbers were not always called active. Virion infectivity factor (Human immunodeficiency virus type 1 group M subtype B (isolate …. one-dose inhibition, %; IC50 in µM for titrated hits;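 active = above the screen mean plus three standard deviations and confirmed in dose response; inconclusive = results disagree or hit not tested in dose response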;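 note: Vif residues 1-94 fused to GST binding biotinylated APOBEC3G peptide 110-148; 0% = full assay without inhibitor and 100% = GST in place of GST-Vif; retest series ran down from 100 µM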
FGF22 binding: binders of human FGF22 protein, primary screen, FGF22 synaptogenesis inhibitor project, biophysical, thermal shift, single point. Fibroblast growth factor 22 (Homo sapiens), Q9HCT0. recombinant FGF22 thermal shift, SYPRO orange fluorescence; percent of sucrose octasulfate shift, DMSO zero. calls only at 9.99 µM. 1.5% of 340,000 active. AID 651658, 2012;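 active = melting point raised past a set limit in the mean and every replicate; inconclusive = no clear call; three in four hits are not shown here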
Target sequence (Q9HCT0 whole entry, looked up): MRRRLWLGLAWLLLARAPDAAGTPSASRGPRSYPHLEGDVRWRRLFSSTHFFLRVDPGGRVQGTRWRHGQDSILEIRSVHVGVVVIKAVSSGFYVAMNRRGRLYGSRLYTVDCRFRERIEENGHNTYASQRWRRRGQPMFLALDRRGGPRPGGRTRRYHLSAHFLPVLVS
AF4-AF9 inh: inhibitors of AF4 peptide binding to AF9, primary screen, biochemical, AlphaScreen, biotin-AF4 peptide, FLAG-AF9, single point | Protein AF-9 (Homo sapiens), P42568 | inhibition, % at 10 µM | 0.47% of 350,000 active;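 active = every replicate reaching a set inhibition limit, whatever the replicate mean, cut at about 25% in these data; inconclusive = mean inhibition reaches that limit but some replicates miss it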;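 note: 0% = plate neutral control median and 100% = total signal loss; the record names both 10 and 1 µM as test concentration; the first replicate is given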
UCH37 DUB inh: inhibitors of human UCH37 deubiquitinase, primary screen, biochemical, Ub-AMC cleavage, fluorescence | Ubiquitin carboxyl-terminal hydrolase isozyme L5 (Homo sapiens), Q9Y5K5 | purified proteasome/UCH37 | inhibition, % (concentration not given with the values) | 0.33% of 330,000 active | AID 588478, 2011;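 active = mean of two replicates above 20%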;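 note: 0% = compound-free wells with enzyme and 100% = wells lacking proteasome; stock transfer was 100 nL into about 20 µL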
Target sequence (Q9Y5K5 whole entry, looked up): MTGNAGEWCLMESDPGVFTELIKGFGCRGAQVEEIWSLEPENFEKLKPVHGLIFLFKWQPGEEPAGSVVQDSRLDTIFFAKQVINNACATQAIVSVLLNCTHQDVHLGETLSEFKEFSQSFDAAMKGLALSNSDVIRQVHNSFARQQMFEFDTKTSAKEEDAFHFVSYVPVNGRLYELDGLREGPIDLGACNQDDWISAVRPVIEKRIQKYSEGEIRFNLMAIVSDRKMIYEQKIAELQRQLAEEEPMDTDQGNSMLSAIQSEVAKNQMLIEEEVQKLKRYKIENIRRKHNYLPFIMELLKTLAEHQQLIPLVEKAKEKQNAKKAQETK
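Assay system: Proteasome-bound UCH37. Buffer or medium: pH 7.4 Tris-HCl (50 mM) with ovalbumin, ATP-MgCl2, DTT. Incubation: 30 min preincubation with enzyme, 25 min cleavage at room temperature. Measured by: fluorescence, ex 355 nm, em 460 nm. Read-out basis: percent inhibition. Control set: wells without proteasome as full block, compound-free enzyme plus substrate as uninhibited.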
Ecoli growth: E. coli growth inhibition, primary screen, OD600; Escherichia coli growth, 23 h; hits give low values; OD600 absorbance (test concentration not listed); 0.21% of 330,000 active; AID 1053175, 2014;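 active = OD600 absorbance below the run mean of sample wells minus 3.6 SD, in any replicate, cut at about 0.56 in these data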;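 note: stock transfer was 300 nL into about 60 µL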
RanGTP-Impb inh: inhibitors of RanGTP-importin-beta interaction, primary screen, biochemical, FRET, CFP-Ran, YFP-importin-beta, homogeneous. Ran GTPase (GTP-bound) - importin-beta complex. cell-free CFP-Ran/YFP-importin-beta FRET ratio. inhibition, % (test concentration not listed). 1.1% of 300,000 active. AID 2216, 2009;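 active = most replicates above 15%; inconclusive = exactly half above 15%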;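 note: 0% = DMSO wells and 100% = Ran loaded with GDP instead of GTP; wells of about 40 µL received 100 nL stock; the first replicate is given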
HNF4A DNA FP: change in binding of human HNF4A to DNA, primary screen, biochemical, fluorescence polarization, FITC-DNA. 0.3% of 360,000 active. activity change, % at 10 µM. AID 1224865, 2016. 1 h. Hepatocyte nuclear factor 4-alpha (Homo sapiens), P41235; in the data active = activity change above about 30%, passing the limit was not always enough;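 note: controls were the assay level and a saturating level of protein; the project sought stronger binding though the title names inhibitors; some compounds called inactive have numbers as strong as hits; positive values seem to mean higher polarization but the record does not say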
Target sequence (P41235 whole entry, looked up): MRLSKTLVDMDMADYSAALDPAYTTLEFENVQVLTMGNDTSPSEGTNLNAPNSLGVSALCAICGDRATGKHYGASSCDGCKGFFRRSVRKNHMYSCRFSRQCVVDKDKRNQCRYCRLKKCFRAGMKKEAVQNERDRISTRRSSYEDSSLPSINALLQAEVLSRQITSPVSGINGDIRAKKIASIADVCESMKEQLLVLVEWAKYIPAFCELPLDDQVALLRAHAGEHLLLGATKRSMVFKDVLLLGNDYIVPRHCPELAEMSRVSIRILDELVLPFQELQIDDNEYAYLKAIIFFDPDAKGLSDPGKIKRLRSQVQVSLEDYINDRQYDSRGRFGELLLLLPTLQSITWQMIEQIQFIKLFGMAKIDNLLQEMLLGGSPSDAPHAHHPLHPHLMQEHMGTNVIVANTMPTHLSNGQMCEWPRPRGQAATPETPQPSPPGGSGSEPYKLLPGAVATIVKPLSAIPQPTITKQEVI
The depositor's hits bear a star; i = inactive; ? = inconclusive; . = no result given; & = joins results of further samples. Not all compounds are listed; rates above refer to the full screens.

SMILES	Vif A3G	FGF22 binding	AF4-AF9 inh	UCH37 DUB inh	Ecoli growth	RanGTP-Impb inh	HNF4A DNA FP
CC1CCc2cc(F)ccc2N1C(=O)CCC(=O)O (stereo not given)	-5%	.	.	-0.3	0.71	3.2	0.7
CN1CCN(C(=O)CSc2nnc(COc3ccc(Cl)cc3)o2)CC1	.	i	-2.8	3.5	0.67	1.9	-0.9
O=S(=O)(c1ccc(SCCOc2ccccc2)nc1)N1CCCC1	-8%	i	-4.8	-1.3	0.69	.	1.0
COc1ccc(N(CC(=O)Nc2nccs2)S(=O)(=O)c2c(C)nn(C)c2C)cc1	-3%	i	3.3	0.9	0.78	.	1.8
CCOC(=O)NCc1ccc2c(c1)OCO2	-2%	.	.	0.9	0.77	-2.2	0.5
CC(C(=O)NC(=O)NC1CCCCC1)N1CCN(C(c2ccccc2)c2ccccc2)CC1 (stereo not given)	1%	.	.	1.9	0.65	4.7	-2.4
C/C=C/c1cccc(-c2nc(C(=O)N3CCOCC3)cc3c2[C@@H](CCO)N(C(=O)NC(C)C)C3)c1	.	i	0.3	.	.	.	-2.4
c1cnc(N2CCN(Cc3c[nH]c4ccccc34)CC2)nc1	-1%	.	.	-2.9	0.68	2.4	-3.1
O=C1CC[C@H](OCc2ccccc2)CCN1[C@H](CSc1ccccc1)Cc1ccccc1	.	i	1.7	4.0	.	3.2	9.0
Cc1ccc(S(=O)(=O)N2CCN(C(=O)CC(C)n3nc(C)c(Cl)c3C)CC2)cc1 (stereo not given)	.	i	3.0	2.9	0.64	2.5	0.3
Cc1ccc(C(=O)NC2CCCC(C)C2C)cc1S(=O)(=O)N1CCCCC1 (stereo not given)	1%	i	-1.8	2.7	0.64	0.7	1.9
Cc1cc(Cl)ccc1C(O)c1ncc(-c2ccc(Cl)cc2)[nH]1 (stereo not given)	.	i	9.3	.	.	.	-0.3
COc1ccc(S(=O)(=O)NC2CC2)cc1Cl	.	i	-1.2	1.7	0.68	?	0.4
COc1ccc(C2CC(c3cccs3)=NN2c2ccccc2)cc1 (stereo not given)	.	i	-43	i	0.73	2.0	8.9
CCCCn1c(SCC(=O)Nc2cccc(C)n2)nnc1-c1ccco1	24%	.	.	2.2	0.69	-2.4	2.7
Cc1ccc(CN2CCN(/N=C\C=C\c3ccccc3)CC2)cc1	.	i	7.0	.	.	-0.1	-1.5
Cc1c(NC(=S)Nc2ccccc2)c(=O)n(-c2ccccc2)n1C	2%	i	-0.3	0.7	0.67	0.2	0.5
O=C(Nc1ccc2nc(-c3ccco3)[nH]c2c1)c1ccco1	?	.	.	9.6	0.71	-0.6	4.8
O=C(CSc1ncn[nH]1)c1cc2ccccc2o1	9%	i	-2.1	3.9	0.66	1.5	2.5
Cc1cn2c(=O)c(C(=O)N3CCN(c4ccccc4)CC3)cnc2s1	4%	i	0.8	4.9	0.57	8.6	-1.0
O=C(O)COc1ccc(NC(=O)c2ccc3c(c2)C(=O)N(C2CCCCC2)C3=O)cc1	.	i	1.0	.	.	4.1	1.6
COc1cc([N+](=O)[O-])cc(/C=N/NC(=O)c2cc(C)nc3ccccc23)c1O	24%	i	2.4	.	.	-8.7	3.6
Cc1cnc(C(=O)OCC(=O)N(Cc2ccccc2)C(C)(C)C)cn1	-7%	i	0.3	-0.9	0.72	.	4.3
COCCNC(=O)c1ccc2ccccc2n1	8%	.	.	2.4	0.71	-2.2	3.5
NC(=O)c1cc2ccccc2oc1=NCc1ccccc1	8%	.	.	3.8	0.78	6.4	-1.8
COc1ccc2[nH]c3c(c2c1)CCN1C(=O)C(CC(=O)NCCCN(C)C)C[C@H](C(=O)N2CCCCC2)[C@@]31CCc1ccccc1 (stereo not given in full)	-7%	i	14	2.9	0.7	.	4.9
O=C(CC1C[C@H](C(=O)N2CCCCC2)[C@@]2(CCc3ccccc3)c3[nH]c4ccccc4c3CCN2C1=O)NCc1cccc(C(F)(F)F)c1 (stereo not given in full)	-10%	i	3.2	7.6	0.73	.	1.1
O=S(=O)(NC1CCCC1)c1ccc(S(=O)(=O)N(Cc2cccs2)CC2CCCO2)cc1 (stereo not given)	3%&2%	i	-17	1.7	0.68	2.3	-4.8
CC(=O)/C=N/Nc1ccccc1	8%	.	.	.	.	-1.0	-2.3
COc1ccccc1CC(=O)O/N=C(\N)c1cccc([N+](=O)[O-])c1	-4%	.	.	1.7	0.68	2.0	0.2
Cc1cc(NC(=O)c2ccccc2)n(-c2ccccc2)n1	-3%	i	-1.1	0.0	0.65	.	3.2
CCOC(=O)C1=C(O)/C(=C\c2ccc(O)c(OCC)c2)N=C1C	24%	i	.	5.6	0.69	-5.1	-1.6
Cc1cc(NC(=O)CCC(=O)N(c2ccccc2F)C(C(=O)NC2CCCC2)c2ccccc2)no1 (stereo not given)	.	i	1.9	-3.8	0.68	2.4	-6.6
Cc1c(Cl)cccc1NC(=S)NCc1ccccc1Cl	-8%	.	.	1.9	0.69	-3.5	3.0
C=CCOc1ccc(/C=C/C(=O)OCC(=O)NNC(=O)c2ccccc2F)cc1	1%	i	-2.3	-38	0.71	.	1.4
O=C(Nc1cccc(S(=O)(=O)C(F)(F)F)c1)[C@H]1C[C@H](O)[C@@H](CO)O1	.	i	-5.2	.	.	.	0.7
COc1cc(C(CCN2CCCC2)c2c(OC)cc(OC)c3ccc(=O)oc23)cc(OC)c1OC (stereo not given)	0%	i	5.3	0.7	0.71	-0.8	0.4
COc1ccc(C(=O)OCCc2cc3ccccc3c(=O)o2)cc1	.	i	-0.4	-1.0	0.77	.	-1.2
Cc1ccc(C2N=C(N)Nc3nc4ccccc4n32)cc1 (stereo not given)	-8%	i	0.1	0.9	0.71	0.3	-1.3
CCOc1ccc(S(=O)(=O)n2ccc(C)n2)cc1	-10%	i	-2.5	.	.	1.1	-2.5
Cc1ccc(C(=O)OCC(=O)Nc2ccccc2Cl)c(O)c1	.	i	-0.3	-11	0.73	4.5	-1.5
COc1ccc(CCn2c(N)cc(=O)[nH]c2=S)cc1OC	-2%	.	.	-2.1	0.81	.	0.6
Cc1cc(C)c(OCC(=O)OCC(=O)NCc2cccs2)c(C)c1	0%	i	1.7	1.1	0.65	6.4	-0.5
CCOC(=O)CNC(=O)CSc1nc2cccnc2n1C1CCCCC1	23%	.	.	3.8	0.72	-1.0	5.4
O=C(NCc1ccc(F)cc1)C1CCN(S(=O)(=O)c2ccc(Br)s2)CC1	.	i	0.6	2.5	0.69	-5.9	0.8
CCN(CC)C(=O)c1cc(-c2ccc(Br)cc2)on1	?	.	.	-2.0	0.71	-0.9	-0.5
Cc1ccc(NC(=O)CCc2nc3ccccc3s2)c(O)c1	-2%	i	-1.1	-0.2	0.64	-1.6	3.4
Cc1ccc(C(=O)N/N=C/c2cn(Cc3ccccc3)c3ccccc23)cn1	-7%	i	4.2	.	.	-5.9	1.3
COc1ccccc1N(C)S(=O)(=O)c1ccc(C(=O)Nc2ccc3nc(C)sc3c2)cc1	?	.	.	2.4	0.73	-2.8	1.3
O=C(COc1ccccc1Br)NC1CCCC1	-10%	.	.	1.4	0.64	2.0	-1.7
CCCOc1ccc(C2C(C(=O)OC)=C(C)N=C3SCCC(=O)N32)cc1OCC (stereo not given)	-4%	.	.	2.5	0.7	-1.6	-2.1
O=C(NCCS(=O)(=O)N1CCN(c2cccc(Cl)c2)CC1)c1cc(=O)c2ccccc2o1	.	i	-0.1	4.7	0.7	1.4	6.8
Cc1ccccc1NC(=O)C1CC(=O)N(Cc2ccccc2)C1 (stereo not given)	-4%	.	-1.5	2.1	0.67	4.4	0.4
O=C(c1ccc(CS(=O)c2ccccc2Cl)o1)N1CCOCC1 (stereo not given)	-1%	i	1.8	0.7	0.67	1.7	6.4
Cc1ccccc1/C=N\NC(=O)c1csnn1	9%	.	.	.	.	4.9	2.4
Nc1ccc2c(c1Cl)C(=O)c1ccc(N)c(Cl)c1C2=O	30%	i	0.7	.	.	-2.3	-67
Cc1ccc(S(=O)(=O)N[C@@H](C)C(=O)N2CCC(C(=O)N[C@@H](Cc3ccccc3)C(=O)O)CC2)cc1	3%	i	-1.8	-0.4	0.61	2.5	-4.3
CCCn1c(COc2ccccc2OC)nc2ccccc21	0%	i	-7.7	5.5	0.69	-0.2	-2.4
COc1cccc(C(=O)Oc2ccc3ccc(=O)oc3c2)c1	0%	i	-0.5	i	0.62	?	1.1
Cc1ccc(OCc2nnc(SC3CCc4ccccc4C3=O)n2C)cc1 (stereo not given)	25%	i	-1.4	0.7	0.71	0.8	2.4

The listing continues.
SMILES	Vif A3G	FGF22 binding	AF4-AF9 inh	UCH37 DUB inh	Ecoli growth	RanGTP-Impb inh	HNF4A DNA FP
Cc1ccc(-n2c(C)cc(-c3csc(N)n3)c2C)cc1	-6%	.	.	-0.1	0.67	2.9	2.0
C[C@H]1CN([C@@H](C)CO)C(=O)c2cccc(NC(=O)C3CC3)c2O[C@H]1CN(C)Cc1ccncc1	.	i	-2.9&-2.6	-1.3	0.75	.	5.3
Cc1ccc2c(c1)OC(c1ccc3c(c1)OCCO3)CC2=O (stereo not given)	-3%	i	7.0	-2.4	0.66	-1.5	-1.0
C[C@H](CO)N1C[C@H](C)[C@@H](CN(C)Cc2ccccc2)Oc2c(NS(=O)(=O)c3cn(C)cn3)cccc2C1=O	.	i	-1.0&-6.1	1.8	0.68	.	4.3
Cc1ccc(S(=O)(=O)NC[C@H]2O[C@@H](n3ccc(N)nc3=O)[C@H](O)[C@@H]2O)s1	.	i	-4.8	.	.	.	1.1
COC(=O)c1sccc1S(=O)(=O)Nc1ccc(Cl)cc1	-4%	i	-0.2	3.9	0.65	7.5	5.0
Cc1ccc(C)c(N(CC(=O)NN=C2CCN(C)CC2)S(=O)(=O)c2ccccc2)c1	.	.	.	-1.2	0.71	0.1	-1.7
N#Cc1cc(-c2ccccc2)oc1NC(=O)c1ccco1	-2%	.	.	9.3	0.68	-0.8	-0.7
CN(C)c1ccc(CN(CC2CCCO2)C(=O)c2cccs2)cc1 (stereo not given)	4%	i	9.4	6.5	0.69	-0.3	-1.2
Cc1c(C(=O)Nc2ccccc2)sc2nc(-c3ccccc3)cn12	2%	.	.	5.4	0.66	-3.4	1.0

3 structures out of the list, arranged by number of heavy atoms, smallest number first:
SMILES	Vif A3G	FGF22 binding	AF4-AF9 inh	UCH37 DUB inh	Ecoli growth	RanGTP-Impb inh	HNF4A DNA FP
CCOc1ccc(S(=O)(=O)n2ccc(C)n2)cc1	-10%	i	-2.5	.	.	1.1	-2.5
Cc1ccc(CN2CCN(/N=C\C=C\c3ccccc3)CC2)cc1	.	i	7.0	.	.	-0.1	-1.5
COc1cc(C(CCN2CCCC2)c2c(OC)cc(OC)c3ccc(=O)oc23)cc(OC)c1OC (stereo not given)	0%	i	5.3	0.7	0.71	-0.8	0.4

Another view of some results above:
structure: Cc1ccc(-n2c(C)cc(-c3csc(N)n3)c2C)cc1
  Vif A3G = -6%	FGF22 binding = .	AF4-AF9 inh = .	UCH37 DUB inh = -0.1	Ecoli growth = 0.67	RanGTP-Impb inh = 2.9	HNF4A DNA FP = 2.0
structure: C[C@H]1CN([C@@H](C)CO)C(=O)c2cccc(NC(=O)C3CC3)c2O[C@H]1CN(C)Cc1ccncc1
  Vif A3G = .	FGF22 binding = i	AF4-AF9 inh = -2.9&-2.6	UCH37 DUB inh = -1.3	Ecoli growth = 0.75	RanGTP-Impb inh = .	HNF4A DNA FP = 5.3
